PINK1 modulator: modulators of PINK1 expression | PINK1 immunofluorescence, high-content cytometry, 24 h | Potency, µM (series often up to 76.6 µM), inactives show at the highest dose activation (PINK1 increase), hits mostly activators | 410,000 tested, 0.2% active | AID 624263; active = well fitted activation curve with a large enough effect; inconclusive = small, poorly fitted or top-dose-only effect; inactive = flat fitted curve, though single readings scatter; cell line not stated here;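 also: potency is read from the fitted curve at half-maximal effect; % of control where 0% means no effect; nearly all actives have a fitted effect of over 65% in size; a mitochondrial uncoupler was the plate control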
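Cells are seeded, rested 12 hours, then given compound at five concentrations or DMSO for 24 hours. After fixation, blocking and antibody staining, PINK1 amount and mitochondrial localization are scored; CCCP serves as control.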
D2 agonist: activates the human D2 dopamine receptor; 360,000 tested, 0.084% active; P14416; DiscoveRx PathHunter D2 beta-arrestin, luminescence, 90 min; 100% = 57 uM dopamine signal; activation, % (concentration not given with the values); in the data active = activation above about 40%; inconclusive = about 15% to 40%; inactive = below about 15%; also: compound concentration not given in the record; the text of the record calls up to 30% inactive
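Agonist mode: compounds alone added to overnight-plated D2 PathHunter cells for 90 min at 37 C, with 57 uM final dopamine (EC100) defining full response. Beta-arrestin recruitment detected by chemiluminescent reagent, read after 1 h at ambient temperature.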
Sfp inh: Sfp phosphopantetheinyl transferase inhibition. Q9F4F7. Biochemical Sfp PPTase activity, qHTS. Potency, µM, inactives show max response, negative = inhibition, hits mostly inhibitors. 310,000 tested, 3.5% active; active = well fitted inhibition curve with a large enough effect; inconclusive = small, poorly fitted or top-dose-only effect, or another doubt; inactive = no such curve, though single readings can be large or run the other way;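 also: the enzyme is Sfp with the accession as filed and its product quenches rhodamine fluorescence; potency is read from the fitted curve at half-maximal effect; 0% = enzyme reaction without inhibitor and -100% = no enzyme wells; top concentration of the series not given in the record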
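Step 1, compound plus 15 nM Sfp-PPTase, 15 min, room temperature. Step 2, add rhodamine-CoA (5 uM) and BHQ-2-YbbR (12.5 uM). Step 3, read 525/598 nm fluorescence at 0 and 30 min.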
D2 potentiator: human D2 receptor positive allosteric modulation. P14416. DiscoveRx D2 beta-arrestin cells, luminescence, 90 min; 100% = 57 uM dopamine signal. potentiation, % (test concentration not listed). 360,000 tested, 0.23% active; active = potentiation of 50% or more; inconclusive = 30% to 50%; inactive = 30% or less;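 also: compound concentration not given in the record; tested on top of an EC20 dose of dopamine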
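D2 cells co-treated with compound plus 50 nM dopamine (EC20) for 90 min at 37 deg C to detect potentiation. Beta-arrestin recruitment was read as enzyme-fragment luminescence after 1 h at ambient temperature. Full response was set by 57 uM dopamine.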
TRPV1 potentiator: human TRPV1 potentiation; TRPV1-expressing cells, Fluo-8 calcium influx, capsaicin EC20 potentiation; host cell line not named in the record; control for the full effect not named in the record; potentiation, % at 8.33 µM; 320,000 tested, 0.02% active; AID 540277; active means potentiation above 80%; inconclusive means 30% to 80%; inactive means below 30%; also: 0% is about no effect
Target sequence (Q8NER1 whole entry, looked up): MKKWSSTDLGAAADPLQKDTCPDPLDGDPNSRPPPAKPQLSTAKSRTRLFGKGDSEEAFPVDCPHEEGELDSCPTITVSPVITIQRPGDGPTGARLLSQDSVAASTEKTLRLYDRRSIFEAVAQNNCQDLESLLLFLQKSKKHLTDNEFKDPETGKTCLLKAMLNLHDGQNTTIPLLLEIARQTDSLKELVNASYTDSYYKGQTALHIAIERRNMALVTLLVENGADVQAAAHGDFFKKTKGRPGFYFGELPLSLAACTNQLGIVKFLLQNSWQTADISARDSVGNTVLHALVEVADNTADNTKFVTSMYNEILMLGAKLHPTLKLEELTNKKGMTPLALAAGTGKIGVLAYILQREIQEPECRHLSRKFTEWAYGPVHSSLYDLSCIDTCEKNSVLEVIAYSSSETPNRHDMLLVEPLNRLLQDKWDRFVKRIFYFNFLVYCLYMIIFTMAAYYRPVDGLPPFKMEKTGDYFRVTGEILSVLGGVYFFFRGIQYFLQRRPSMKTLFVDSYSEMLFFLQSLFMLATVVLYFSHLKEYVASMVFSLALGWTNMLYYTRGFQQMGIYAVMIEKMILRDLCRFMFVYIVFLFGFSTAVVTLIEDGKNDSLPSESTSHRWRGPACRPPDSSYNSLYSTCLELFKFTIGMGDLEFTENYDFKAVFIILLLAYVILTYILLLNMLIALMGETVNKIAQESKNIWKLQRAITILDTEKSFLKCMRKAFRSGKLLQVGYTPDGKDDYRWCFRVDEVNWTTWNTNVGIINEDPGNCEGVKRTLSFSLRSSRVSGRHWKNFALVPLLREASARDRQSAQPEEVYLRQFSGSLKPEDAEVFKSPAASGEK
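TRPV1-expressing cells were cultured overnight at 35.5C and loaded with Fluo-8 calcium dye for 40 to 90 min at room temperature. After a 10 s baseline, compound was added and calcium influx was read kinetically for 3 min (ex 480/em 520 nm).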
Six1-Eya2 inh: Six1/Eya2 interaction inhibition; Q15475+O00167; AlphaScreen GST-Six1/His-Eya2 binding, biochemical; active compounds read low; control for the full effect not named in the record; activity change, % (test concentration not listed); 360,000 tested, 0.56% active; AID 651725; in the data active = activity change below about -65%; inconclusive = about -30% to -65%; inactive = above about -30%; also: % is scaled to controls: 0 for no effect and ±100 for the full control effect
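AlphaScreen luminescence read after one hour at 37 °C in darkness. Pin-transferred compounds met GST-Six1 and His-Eya2 protein (5X stock 250 nM/500 nM) plus glutathione donor and Ni-chelate acceptor beads (5X, 50 ug/mL).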
CtBP-E1A inh: blocks the CtBP interaction with E1A; activity change, % (no concentration beside the values); 340,000 tested, 0.49% active; AlphaScreen GST-E1A/His-CtBP binding, 1536-well; active compounds read low; control for the full effect not named in the record; AID 651724; in the data active means activity change below about -65%; inconclusive means about -30% to -65%; inactive means above about -30%; also: % is scaled to controls: 0 for no effect and ±100 for the full control effect
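Steps: dispense buffer (Tris pH 8.0, NaCl 300 mM, TCEP 1 mM, BSA, Tween 20); add 5X protein mix (GST-E1A, His-CtBP, 125 nM each); pin 23 nL compound; 2 h at 37 °C, dark; add 5X beads (50 ug/mL); 1 h; read.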
* hit, by the source's call; ? = inconclusive; . = not tested or not shown; & = joins results of further samples; [ ] = another dose, or the depositor's remark. An excerpt; the hit share may differ from the screen's.

SMILES	PINK1 modulator	D2 agonist	Sfp inh	D2 potentiator	TRPV1 potentiator	Six1-Eya2 inh	CtBP-E1A inh
O=C1C2CCCN2C(c2ccc(Cl)c(Cl)c2)N1c1ccccn1 (configuration not stated)	-0.5%	-4.0	1%	6	-26	-2	-2
Cc1cccc(OP(N)(=O)Oc2cccc(C)c2)c1	0.7%	-2.5	5%	-6	-8	0	4
CCOC(=O)c1c(C)n(CCOC)c2ccc(O)cc12	-0.7%	-2.7	2%	29	4	-2	6
CC(C)(C)c1cc(C=C(C#N)C#N)cc(C(C)(C)C)c1O	?	-9.2	56µM*	-12	-9	-9	2
Cc1ccsc1CNCCc1ccccc1F	-0.5%	0.8	9%	-5	3	0	3
COc1ccc(N=Cc2c(O)n(Cc3ccccc3)c(=S)[nH]c2=O)c(OC)c1	1.5%	-4.6	16%	-6	.	-4	0
Cc1cc(C(=O)O)c(C)n1C1CC1	-0.5%	-2.1	12%	-4	?	-1	-1
CCC1(CC)C(=O)NC(=O)N(c2ccccc2)C1=O	-0.3%	4.0	.	3	.	10	7
CCOC(=O)[C@]12Cc3cc(OC)ccc3[C@H]1N(Cc1ccccc1)C(=O)c1cc(F)c(F)cc12	1.0%	-1.9	.	-4	.	2	3
CC(C)C[C@H]1COc2cccc(N3CCN(C)CC3)c2S(=O)(=O)N1	-1.2%	.	.	.	.	12	-26
COc1cccc(CNCCc2cccc(F)c2)c1OC	0.9%	1.2	-28%	-11	-4	3	.
C[C@](N)(CCP(=O)(O)O)C(=O)O	0.1%	-5.9	-20%&-7%	-4	-6	6	-17
COc1ccc2c(c1O)-c1cccc3c1[C@@H](C2)N(C)CC3	0.6%	-1.2	.	-6	.	-6	3
CCOc1ccc(C2C(C#N)=C(N)Oc3c2c(=O)oc2ccccc32)cc1 (configuration not stated)	2.8%	-3.3	-17%	-11	8	-4	2
O=[N+]([O-])c1cc(-n2cnnn2)c(O)c([N+](=O)[O-])c1	0.6%	-13	11%	-18	2	11	-11
O=C1/C(=C\c2cccnc2)N2CCC1CC2	0.5%	2.6	15%	-11	-4	-4	-3
Cn1c(O)c(C=NCCN2CCOCC2)c(=O)n(C)c1=S	1.0%	-3.7	-5%	-2	?	-1	-2
O=C(Cc1ccccc1)N1CCN(Cc2ccccc2Cl)CC1	1.0%	0.6	?	-10	-39	1	.
C[C@H]1CCCC(=O)CCCCCc2cc(O)cc(O)c2C(=O)O1	1.2%	2.7	7%	-3	-12	-2	-11
Cc1nc2c(=O)n(C)c(=O)nc-2n(C)n1	-6.4%	.	-6%	.	?	-20	-3
COC(=O)C1=C(c2cc3ccccc3o2)C[C@@H]2CC[C@H]1N2C	-0.1%	-1.6	.	-22	-7	-1	.
OC(Cn1c2ccccc2c2ccccc21)C[n+]1cccc2ccccc21 (configuration not stated)	-3.2%[38.3 µM]	-2.7	13%	-15	0	-5	-6
Cc1cccc(NC(=O)OC2CN3CCC2CC3)c1 (configuration not stated)	-0.3%	-1.0	16%	2	-22	6	3
COC(=O)C1=C(c2c(C)noc2C)C[C@@H]2CC[C@H]1N2C(=O)NC(C)C	0.3%	-1.4	.	-3	15	2	8
CCCCn1c(=O)c(C(=O)NCc2ccc(Cl)cc2)c(O)c2ccccc21	?	0.8	-10%	-3	14	3	7
CC(C(=O)c1ccccc1)N1C(=O)c2ccccc2C1=O (configuration not stated)	1.7%	-3.7	-20%	-3	-1	2	5
Cc1cc(/C=C2\C(=O)NC(=O)N(c3ccc(Cl)cc3)C2=O)c(C)n1C	?	-1.7	-13%	-1	0	-7	.
O=[N+]([O-])c1cccc(NP(=O)(Oc2ccccc2)Oc2ccccc2)c1	5.1%	-3.2	2%	-1	-8	-6	-1
O=C(c1cccn2c(=O)c3ccccc3nc12)N1CCC2(CC1)OCCO2	3.6%[38.3 µM]	-0.7	16%	12	2	3	3
CC(C)Oc1cccc(C(=O)C2CCCN(C3CCOCC3)C2)c1 (configuration not stated)	-0.9%	-3.6	17%	-12	10	1	6

Sorted by count of non-hydrogen atoms (falling): part of the list above
SMILES	PINK1 modulator	D2 agonist	Sfp inh	D2 potentiator	TRPV1 potentiator	Six1-Eya2 inh	CtBP-E1A inh
CCCCn1c(=O)c(C(=O)NCc2ccc(Cl)cc2)c(O)c2ccccc21	?	0.8	-10%	-3	14	3	7
O=[N+]([O-])c1cccc(NP(=O)(Oc2ccccc2)Oc2ccccc2)c1	5.1%	-3.2	2%	-1	-8	-6	-1
Cc1cc(/C=C2\C(=O)NC(=O)N(c3ccc(Cl)cc3)C2=O)c(C)n1C	?	-1.7	-13%	-1	0	-7	.
CC(C)Oc1cccc(C(=O)C2CCCN(C3CCOCC3)C2)c1 (configuration not stated)	-0.9%	-3.6	17%	-12	10	1	6
O=C(Cc1ccccc1)N1CCN(Cc2ccccc2Cl)CC1	1.0%	0.6	?	-10	-39	1	.
COC(=O)C1=C(c2cc3ccccc3o2)C[C@@H]2CC[C@H]1N2C	-0.1%	-1.6	.	-22	-7	-1	.
CC(C(=O)c1ccccc1)N1C(=O)c2ccccc2C1=O (configuration not stated)	1.7%	-3.7	-20%	-3	-1	2	5
Cc1cccc(NC(=O)OC2CN3CCC2CC3)c1 (configuration not stated)	-0.3%	-1.0	16%	2	-22	6	3
O=C1/C(=C\c2cccnc2)N2CCC1CC2	0.5%	2.6	15%	-11	-4	-4	-3
Cc1nc2c(=O)n(C)c(=O)nc-2n(C)n1	-6.4%	.	-6%	.	?	-20	-3

(more compounds)
SMILES	PINK1 modulator	D2 agonist	Sfp inh	D2 potentiator	TRPV1 potentiator	Six1-Eya2 inh	CtBP-E1A inh
Cc1ccc(-c2nc(NC(=O)c3ccc(S(=O)(=O)N(CCC#N)CCC#N)cc3)sc2-c2ccccc2)cc1	?	-0.1	8%	17	2	11	3
COCCOC(=O)c1c(C)n(C)c2ccc(OC(=O)N(C)C)cc12	5.6µM*	-0.7	-11%	-12	-13	2	10
Cc1nn(-c2ccccc2)c(C)c1NC(=O)COC(=O)Cc1ccccc1	1.1%	-4.5	.	-5	-4	3	6
COC(=O)C1=C(c2cccc(OC)c2OC)C[C@@H]2CC[C@H]1N2C(=O)NCc1ccccc1	1.3%	-2.8	.	-12	.	-6	-10
O=C(NC1CN2CCC1CC2)c1cccc(Cl)c1 (configuration not stated)	-1.7%	-4.1	8%	-13	4	8	-1
CC(C)CCC1(CCc2ccncc2)C(=O)NC(=O)NC1=O	5.3%	-2.9	15%	-10	14	1	2
CC(C)CN1Cc2cc(N3CCCCC3)ccc2-n2nncc2C1	1.5%	-3.7	.	-10	.	-13	-7
Cc1ccc(C(=O)N/C(=C\Cl)P(=O)(c2ccccc2)c2ccccc2)cc1	3.8%	2.1	8%	-1	-3	3	2
OC1(CN2CCOCC2)C2CC3CC(C2)CC1C3 (configuration not stated)	1.2%	-2.5	13%	-43	2	0	1
Cc1nn(Cc2ccccc2)c(C)c1C(=O)OCC(=O)NC1CCS(=O)(=O)C1 (configuration not stated)	-1.3%	-0.8	12%	-13	14	-1	1
CC(=O)OC1N=C(c2ccccc2)c2cc(Br)ccc2NC1=O (configuration not stated)	0.2%	-1.1	-2%	8	0	13	-1
CCCCCn1c(=O)c(C(=O)Nc2nc3ccccc3[nH]2)c(O)c2ccccc21	4.7%	-5.1	16%	-4	11	5	1
CN(C)c1ccc(P(=S)(N(C)C)N(C)C)cc1	29%[38.3 µM]	-2.0	-19%	-1	23	-3	2
Brc1ccccc1	0.3%	-2.4	6%	-19	-4	7	-18
CCC(=NCCc1ccccc1)c1c(O)[nH]c(=O)[nH]c1=O	1.9%	-5.6	2%	1	-6	4	2
O=C(O)C1C2c3ccccc3C(c3ccccc32)C1C(=O)Nc1ccccc1 (configuration not stated)	-1.0%	-4.0	9%	-1	-1	4	0
CC1=NCCc2c1[nH]c1ccccc21	0.6%	-1.5	-12%	-76	16	-23	-22
O=c1[nH]c(=O)n(CCC2=CCCCC2)c(O)c1C=NCCCn1ccnc1	-0.4%	-2.7	-1%	-14	5	-2	0
CC(C)(C)C1(CCO)C(=O)NC(=S)NC1=O	2.9%	-7.9	.	-15	.	0	12
O=c1[nH]c(O)c(C=NC2CCCCC2)c(=O)[nH]1	0.2%	2.0	13%	0	?	-8	4
COc1ccc(-n2c(O)c(C(C)=Nc3ccc4c(c3)CCC4)c(=O)[nH]c2=O)cc1	0.3%	-3.8	10%	-2	5	-6	4
Cc1ncoc1C(=O)NCC1=C(c2cccc3ccccc23)C[C@@H]2CC[C@H]1N2Cc1ccco1	0.0%	-7.1	.	-5	.	-10	-1
CC(C)Oc1ccc(CC2(CCc3ccncc3)C(=O)NC(=O)NC2=O)cc1	-0.8%	-0.3	21%	-7	-5	9	0
NCC(CC(=O)O)C1CCCCC1 (configuration not stated)	?	-2.9	14%	-8	-11	-4	-5
Clc1cccc(NC2=NCCS2)c1	1.0%	-4.5	.	-13	.	6	-4
Fc1cccc(-c2ccc3c(c2)CNCc2cnnn2-3)c1	0.7%	-3.1	.	-6	.	2	3
C[C@]1(O)CCC2C3CC[C@H]4C[C@@H](OC(=O)CNC(=O)CN)CC[C@]4(C)C3CC[C@@]21C (some centres not stated)	1.8%	5.0	.	1	.	3	3
CCN(CC)C(=O)c1ccc(NC(=O)c2cccc(F)c2)cc1	-3.6%	1.1	6%	2	-12	3	3
CCCCN1C(=O)/C(=C\c2ccco2)C(=O)N(CCc2ccccc2)C1=O	7.6%	-6.0	?	-12	13	-25	-4
CCC(c1nnnn1C1CCCCC1)N1CCC2(CC1)C(=O)NCN2c1ccccc1 (configuration not stated)	-0.8%	-3.9	.	-10	.	19	-15
CC(NCc1ccccc1Cl)C(O)c1ccccc1 (configuration not stated)	.	-1.6	-1%	-20	0	0	-4
CN[C@H](C)[C@H](O)c1ccccc1	1.5%	2.1	8%	-9	-11	-2	5
CCOC(=O)c1cc(C(O)(C(=O)OC)C(F)(F)F)c(/N=C/N(C)C)o1 (configuration not stated)	0.2%	1.1	13%	-7	-16	1	-4
COc1ccc(C(=O)C2CCCN(Cc3cnc(C)s3)C2)c(OC)c1 (configuration not stated)	-1.2%	-4.0	9%	-19	1	-1	-1

Assay outcomes as filed in PubChem.
